# Lassa entry inh: blocks Lassa virus binding to or entry into cells; Lassa virus pseudotype entry inhibition, cell reporter; control for the full effect not named in the record; Potency, µM (highest dose often 37.9 µM), for the others: at the highest dose activity change, negative = inhibition, hits mostly inhibitors; 300,000 compounds, 1.2% hits; AID 540256; active means well fitted inhibition curve with a large enough effect; inconclusive means small, poorly fitted or top-dose-only effect, or effect the other way; inactive means flat fitted curve, though single readings scatter; tested in HEK293 cells; further: on the % scale 0 is the no-effect control and ±100 the full control effect; nearly all actives have a fitted effect of over 50% in size; luciferase read-out
# NS1 inh: blocks influenza NS1 protein function | S. cerevisiae slowed by influenza A NS1, growth recovery by OD600 | Potency, µM (series often up to 46.1 µM), for inactives: at the top dose activity, positive = more growth | 270,000 compounds, 0.4% hits | AID 2326; active means well fitted rising curve with a large enough effect; inconclusive means small, poorly fitted or top-dose-only effect; inactive means no such curve, though single readings can be large or run the other way; further: nearly all actives have a fitted effect of over 50% in size
#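 Compounds were scored for reversing the slow growth caused by influenza A NS1 in S. cerevisiae, measured by optical density at 600 nm. Assay medium contained 2% galactose at pH 6.0; NS1-free yeast of the same strain were the positive control.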
# Marburg entry inh: inhibitors of Marburg virus binding or cell entry | Marburg virus pseudotyped entry inhibition, cell reporter; control for the full effect not named in the record; about a third of the inactives were read at about 46 µM | Potency, µM (top dose mostly 37.8 µM), for the others: at the top dose activity change, negative = inhibition, most hits filed as inhibitors | 300,000 compounds, 1.8% hits; active = well fitted inhibition curve with a large enough effect; inconclusive = small, poorly fitted or top-dose-only effect, or effect the other way; inactive = flat fitted curve, though single readings scatter; tested in HEK293 cells; about a fifth of its hits are not listed in these tables; further: on the % scale 0 is the no-effect control and ±100 the full control effect; luciferase read-out
# 2A StopGo: lowers the luciferase signal of an FMDV 2A StopGo reporter | human cells with a luciferase reporter of 2A StopGo recoding; control for the full effect not named in the record | Potency, µM (titrated, usually from 57.9 µM), for inactives: at the highest dose signal change, negative = less light | 410,000 compounds, 1.2% hits | AID 1159524; active = well fitted falling curve with a large enough effect; inconclusive = small, poorly fitted or top-dose-only effect; inactive = no such curve, though single readings can be large or run the other way; tested in HEK293T cells; further: on the % scale 0 is the no-effect control and ±100 the full control effect; nearly all actives have a fitted effect of over 45% in size; luciferase light after 4 h
# Cruzain Triton: inhibitors of Trypanosoma cruzi cruzain with detergent | purified cruzain, Z-FR-AMC fluorescence, 0.01% Triton | Potency, µM, for the others: max response, negative = inhibition, most hits filed as inhibitors | 200,000 compounds, 0.43% hits;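 further: plate controls were neutral wells for no effect and buffer without enzyme for full effect; nearly all actives have a fitted effect of over 40% in size; top concentration of the series not given in the record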
# Target sequence (P25779 123-467 limits assumed): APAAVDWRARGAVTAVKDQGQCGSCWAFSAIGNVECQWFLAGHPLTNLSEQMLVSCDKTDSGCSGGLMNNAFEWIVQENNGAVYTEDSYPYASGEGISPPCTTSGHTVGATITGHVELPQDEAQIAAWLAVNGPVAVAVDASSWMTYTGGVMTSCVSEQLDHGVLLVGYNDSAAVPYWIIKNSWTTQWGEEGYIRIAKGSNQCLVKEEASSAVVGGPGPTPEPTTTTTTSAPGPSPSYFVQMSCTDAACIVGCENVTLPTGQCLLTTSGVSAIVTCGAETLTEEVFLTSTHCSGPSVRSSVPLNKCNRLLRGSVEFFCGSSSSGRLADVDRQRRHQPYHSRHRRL
#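 Z-FR-AMC hydrolysis (2 uM substrate) by cruzain (1.5 nM) monitored kinetically at ex 360/em 450 nm after 15 min room-temperature compound exposure; 0.01% Triton X-100, pH 5.5, 5 mM DTT.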
# RE007 growth inh: less growth of the S. pombe RE007 Vpr strain; S. pombe RE007 Vpr strain, BacTiter-Glo ATP luminescence, 24 h; control for the full effect not named in the record; Potency, µM (top dose mostly 92.2 µM), for inactives: at the highest dose activity change, negative = less growth; 360,000 compounds, 0.21% hits; AID 651644; active = well fitted falling curve with a large enough effect; inconclusive = small, poorly fitted or top-dose-only effect; inactive = no such curve, though single readings can be large or run the other way;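 further: on the % scale 0 is the no-effect control and ±100 the full control effect; nearly all actives have a fitted effect of over 50% in size; the assay follows cell death caused by Vpr and the record does not say whether a fall means rescue or toxicity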
#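 Fission yeast strain RE007, carrying one chromosomally integrated HIV-1 vpr copy, was seeded at OD 0.01 in PMG+AL medium with 23 nL pinned compound. After 24 h at 30 °C and 99% humidity, viability was read by BacTiter-Glo luminescence.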
# Cruzain inh noDet: blocks cruzain activity in detergent-free assay; P25779; purified cruzain, Z-FR-AMC fluorescence, no detergent; Potency, µM, for inactives: max response, negative = inhibition, most hits filed as inhibitors; 200,000 compounds, 2.3% hits;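 further: plate controls were enzyme without inhibitor for no effect and buffer without enzyme for full effect; nearly all actives have a fitted effect of over 40% in size; top concentration of the series not given in the record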
#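 Purified cruzain at 1.5 nM, pre-incubated 15 min with compound at room temperature in 100 mM sodium acetate pH 5.5, 5 mM DTT, 0.00005% Triton X-100. Reaction started with 2 uM Z-FR-AMC; AMC fluorescence increase over 60 s gives rate.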
# SARS PLpro yeast: SARS-CoV PLP inhibition in yeast | S. cerevisiae expressing SARS-CoV PLpro, growth rescue; control for the full effect not named in the record | Potency, µM (titrated, usually from 32.9 µM), inactives show top-dose activity, positive = growth rescue | 330,000 compounds, 0.19% hits | AID 485353; active means well fitted rising curve with a large enough effect; inconclusive means small, poorly fitted or top-dose-only effect; inactive means no such curve, though single readings can be large or run the other way; further: 0% is about no effect; nearly all actives have a fitted effect of over 55% in size; growth read by luminescence after 48 h
# An asterisk follows results filed as active; ? = inconclusive; nt = no result given; & = joins results of further samples; [ ] = dose if it differs, or a comment. Unless noted, the call rests on the fitted dose curve; in most records, active means well fitted curve in the direction sought with a large enough effect; inconclusive means small, poorly fitted or top-dose-only effect, or another doubt; inactive means no such curve, though single readings can be large; an effect the other way counts as inactive or inconclusive. Potency means the concentration at half of the fitted maximal effect.
SMILES,Lassa entry inh,NS1 inh,Marburg entry inh,2A StopGo,Cruzain Triton,RE007 growth inh,Cruzain inh noDet,SARS PLpro yeast
CC(C)[C@H](Nc1ccc(S(=O)(=O)N2CCOCC2)cc1[N+](=O)[O-])C(=O)OCC(N)=O,0.3%,5.0%,-4.8%,0.0%,-1.5%,0.6%,-15.5%,-5.7%
Cc1ccc(NC2CCCN(C(=O)C3CCCC3)C2)cc1C (stereo unspecified),?,-10.9%,-5.5%,-23.2%,nt,0.0%,nt,13.9%
COc1ccc(CNC(=O)c2cc(=O)c3cc(C)cc(C)c3o2)cc1,9.3%[46.1 µM],-4.1%,-0.5%[46.1 µM],-3.5%,nt,12.0%,nt,-0.9%
O=C(Cn1cnc2ccccc2c1=O)NCC(=O)N1CCN(c2ccccn2)CC1,-0.1%,-4.0%,-0.6%,-22.4%,6.2%,15.8%,-1.0%,6.0%
O=C(CN(C(=O)C1CSC(=O)C1)c1ccccc1F)NCc1ccc2c(c1)OCO2 (stereo unspecified),-1.8%,-1.1%,7.7%,25.6%,2.5%,-7.0%,-5.4%,0.7%
COc1ccc(/C=C/C(=O)OC(C)CN2CCOCC2)cc1 (stereo unspecified),-11.8%,6.5%,10.7%,-8.4%,-1.5%,0.3%,0.4%,1.9%
CC(C)C[C@@H]1NC(=O)[C@H](CO)NC(=O)c2cc([N+](=O)[O-])cc(I)c2OCC[C@@H](C(N)=O)NC1=O,7.4%,12.4%,9.8%,-7.7%,-7.9%,-9.2%,-4.5%,-5.7%
O=c1oc2ccccc2c2oc3cc(O)c(O)cc3c12,?,13.9%,8.4%&8.4%,20.9%,-14.1%,-9.2%,-14.1%,-0.8%
Cc1ccc(S(=O)(=O)Nc2ccc3ccccc3c2[N+](=O)[O-])cc1,10.4%[46.1 µM],nt,1.8%[46.1 µM],14.5%,nt,?,nt,nt
COCCCn1c(=O)c2sccc2n2c(CCCC(=O)NCc3ccccc3OC)nnc12,2.0%[46.1 µM],-6.7%,13.5%[46.1 µM],-14.8%,nt,1.2%,nt,25.4%
O=C(CCCC1=NS(=O)(=O)c2ccccc2N1)N1CCN(c2ccccc2)CC1,-8.9%,-1.6%,-14.4%,-8.6%,10.2%,-3.7%,-4.9%,0.1%
CCOc1ccccc1N1CCN(C(=O)NC2CCCCC2)CC1,13.8%[46.1 µM],-0.7%,?,15.1%,nt,9.6%,nt,-3.0%
Cc1ccc(/C(N)=N/OC(=O)Cc2cccs2)cc1,26.6%,6.4%,?,46.1%[activator],-1.2%,-25.2%,-3.6%,-8.8%
CCCC(O)(c1ccc(OC)cc1)C(CN1CCOCC1)c1ccc(Cl)cc1 (stereo unspecified),nt,-1.9%,nt,-26.8%,nt,9.3%,nt,-2.3%
O=C(COc1ccc(S(=O)(=O)NC2CCCCC2)cc1Cl)N1CCN(c2ccccc2)CC1,-8.1%,7.0%,?,7.2%,-1.5%,9.4%,0.4%,-5.7%
COc1ccc(/C=C/c2ccccc2)cc1[C@H]1[C@@H]2C=CCC[C@@]2(C)C(=O)N1Cc1ccccc1,nt,?,nt,41.4%[activator],nt,-8.5%,nt,-2.1%
COc1ccc(CNC(=O)C2CCN(Cc3nc(-c4ccc(OC)c(OC)c4)oc3C)CC2)cc1,18.3%[46.1 µM],nt,17.3%[46.1 µM],-16.4%,2.2%,nt,-7.1%,nt
COc1ccc(-c2csc(NC(=S)NC(=O)/C=C/c3ccco3)n2)cc1OC,?,24.0%,?,?,-4.6%,6.0%,-8.7%,-8.5%
Cc1cc2cc(CN(Cc3ccco3)C(=O)NCc3ccccc3)c(=O)[nH]c2cc1C,-3.6%,8.4%,-12.0%,-16.3%,-10.7%,-2.4%,-6.7%,-3.9%
COCCNC(=O)Nc1ccc2nc(-c3cccs3)c(-c3cccs3)nc2c1,-23.2%,12.5%,-12.0%,-28.3%,-9.7%,0.8%,?,0.4%[6.58 µM]
O=c1[nH]c(C2CCN(S(=O)(=O)c3ccc(C(F)(F)F)cc3)CC2)nc2c1nnn2Cc1cccc(F)c1,nt,?,-29.9%[46.1 µM],-9.0%,nt,-12.8%,nt,5.7%
CC1=C([N+](=O)[O-])C(c2ccccc2Cl)NC(=O)N1C (stereo unspecified),11.1%[46.1 µM],6.2%,-22.9%[46.1 µM],14.2%,nt,22.0%,nt,8.6%
Cc1ccc(CN2CCCC(C(=O)c3cccc(C(F)(F)F)c3)C2)o1 (stereo unspecified),0.1%,-1.4%,-8.3%[46.1 µM],-25.0%,nt,-11.0%,nt,-1.1%
C/C(=N\NC(=O)c1c(Cl)c(C)nn1C)c1cccc(NC(=O)c2cccc(F)c2)c1,?,-2.6%,?,0.0%,nt,9.6%,nt,-2.4%
CCS(=O)(=O)NCCc1cc2cc(C)c(C)cc2[nH]c1=O,5.0%,3.2%,?,26.8%,0.3%,-6.8%,-2.6%,-5.0%

# The list goes on; the last 2 above are carried over.
SMILES,Lassa entry inh,NS1 inh,Marburg entry inh,2A StopGo,Cruzain Triton,RE007 growth inh,Cruzain inh noDet,SARS PLpro yeast
C/C(=N\NC(=O)c1c(Cl)c(C)nn1C)c1cccc(NC(=O)c2cccc(F)c2)c1,?,-2.6%,?,0.0%,nt,9.6%,nt,-2.4%
CCS(=O)(=O)NCCc1cc2cc(C)c(C)cc2[nH]c1=O,5.0%,3.2%,?,26.8%,0.3%,-6.8%,-2.6%,-5.0%
CCc1n[nH]c(=S)n1/N=C/c1cc(Br)c(O)c(OC)c1,nt,2.8%,nt,0.0%,nt,0.7%,nt,0.7%
O=C(NC1=NCCCCC1)c1cccc2ccccc12,?,nt,-4.2%[46.1 µM],4.0%,nt,15.4%,nt,2.0%
C[C@]12CC[C@@H](O)CC1=CCC1C2CC[C@@]2(C)C1C[C@@H](F)[C@H]2O (stereo partly specified),1.8%[46.1 µM],nt,0.6%[46.1 µM],-3.9%,nt,-5.6%,nt,nt
Cc1ccc(-c2nn3c(C)nnc3c3ccccc23)cc1S(=O)(=O)NCCO,2.3%,4.5%,8.8%[14.2 µM],85.3%&72.8%[activator],2.3%,-17.4%,-6.6%,-1.0%
Cn1nnc(NC(=S)NC(=O)c2ccco2)n1,21.3%,19.2%,7.8%,6.8%,0.6%,-6.7%,-9.4%,0.8%
CCC(C)NC(=O)CCNS(=O)(=O)c1ccc(Br)cc1 (stereo unspecified),4.2%,0.5%,1.3%,8.8%,7.0%,3.0%,-6.9%,-3.7%
CC(=O)C1=C(O)C(=O)N(c2ccc(C(=O)O)cc2)C1c1ccccc1 (stereo unspecified),3.5%,1.9%,9.0%,23.2%,1.5%,10.3%,-3.6%,-4.1%
COc1cc(OC)cc(C(=O)N/N=C(\C)CC(=O)Nc2ccccn2)c1,?,-7.4%,?,8.2%,nt,7.5%,nt,-2.7%
CCC(NS(=O)(=O)c1ccc(C)cc1)C(=O)N1CCOCCOCCOCCOCC1 (stereo unspecified),1.0%,10.7%,-3.1%[46.1 µM],5.8%,nt,8.2%,nt,-0.1%
C/C=C/c1ccccc1OCc1ccc(C(=O)O)o1,?,-14.8%,11.4%[46.1 µM],45.1%[activator],2.5%,20.2%,-6.3%,-1.1%
c1ccc(C2OC3c4cccc5cccc(c45)C3N2c2ccccc2)cc1 (stereo unspecified),?,11.0%,-8.9%,-9.1%,-6.6%,?,?,-3.9%
c1ccc(Cc2nnc3sc(Nc4ccccc4)nn23)cc1,8.4%,6.8%[9.22 µM],-20.9%,-19.6%,1.2%,0.4%,25.1µM*,7.2%
CCOc1cc(C)nc(N2CCC(C(=O)NC3CC3)CC2)n1,13.0%,nt,19.6%[46.1 µM],-3.0%,nt,8.6%,nt,nt
CC(=O)c1ccc(NC(=O)C2CCC(C)NC2=O)cc1 (stereo unspecified),10.8%,0.6%,16.1%,15.5%,1.1%,13.1%,-2.8%,6.6%
CN(C)S(=O)(=O)c1ccc(C(=O)Nc2ccccc2[N+](=O)[O-])cc1,-1.8%,-5.2%,0.0%,-23.9%,-5.2%,nt,-18.7%,-6.8%
Cc1ccccc1N1CCN(C2CCCN(C(=O)c3cc(C(C)C)[nH]n3)C2)CC1 (stereo unspecified),-25.9%,-7.2%,?,9.6%,nt,-6.0%,nt,-1.3%
Cc1cccc(C)c1NS(=O)(=O)c1ccc(NC(=O)c2ccc(Cl)c([N+](=O)[O-])c2)cc1,11.2%,8.1%,-7.5%,-1.3%,-3.7%,9.4%,-9.2%,2.1%
NC(=O)C1CCCN(Cc2ccc(Cl)cc2)C1 (stereo unspecified),7.2%,2.8%,8.6%,-6.1%,-0.7%,-10.3%,1.8%,8.5%
Cc1ccnc(NC(=O)c2sc3ccccc3c2Cl)c1,?,2.7%,1.58µM*,?,-1.3%,-9.3%,?,2.8%
Cc1ccc(S(=O)(=O)NCC(=O)NCC2CCCCC2)cc1C,0.5%,3.7%,-2.0%[46.1 µM],20.9%,nt,-10.6%,nt,7.7%
Cc1ccc2nc(-c3ccc4c(c3)OCCO4)cn2c1,1µM*,-1.8%,nt,3.16µM*,nt,?,nt,-2.5%
CCCCn1c(N)c(N(CCOC)C(=O)CSc2n[nH]c(-c3ccc(C)cc3)n2)c(=O)[nH]c1=O,2.2%,nt,-4.5%,-20.9%,nt,?,nt,-6.9%
CN1CCC(N(C)S(=O)(=O)c2ccc(NC(=O)COc3cccc(Cl)c3)cc2)CC1,-0.4%,nt,?,-24.1%,nt,-14.8%,nt,-3.3%

# Fetched one by one from above:
SMILES,Lassa entry inh,NS1 inh,Marburg entry inh,2A StopGo,Cruzain Triton,RE007 growth inh,Cruzain inh noDet,SARS PLpro yeast
O=C(CN(C(=O)C1CSC(=O)C1)c1ccccc1F)NCc1ccc2c(c1)OCO2 (stereo unspecified),-1.8%,-1.1%,7.7%,25.6%,2.5%,-7.0%,-5.4%,0.7%
COCCNC(=O)Nc1ccc2nc(-c3cccs3)c(-c3cccs3)nc2c1,-23.2%,12.5%,-12.0%,-28.3%,-9.7%,0.8%,?,0.4%[6.58 µM]
